miR-21 reporter – miR-21 reporter, rising signal | HeLa miR-21 FLuc reporter, luciferase, 48 h | Potency, µM (titrated, usually from 38.3 µM), for the others: at the top dose reporter change, positive = more light | 340,000 tested, under 10 active | AID 2288; active = well fitted rising curve with a large enough effect; inconclusive = small, poorly fitted or top-dose-only effect; inactive = no such curve, though single readings can be large or run the other way;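 further: % of control where 0% means no effect; miR-21 action dims this reporter so a rising signal means less miR-21 action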
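HeLa miR-21-FLuc reporter line, endogenous miR-21; 2000 cells/well in DMEM/10% FBS; compound titration up to ~40uM final, 48 h, 37 degree Celsius; luciferase detection reagent, 15 min lysis, CCD luminescence.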
GLA inh pH 4.5 – blocks human alpha-galactosidase A at pH 4.5; P06280; purified enzyme, 4-MU-alpha-Gal fluorescence, pH 4.5; activity change, negative = inhibition, % at 105 µM; 230,000 tested, under 10 active; inconclusive = small, poorly fitted or top-dose-only inhibition, or a rising curve; inactive = flat fitted curve, though single readings scatter; no compound was filed as active;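 further: 0% = full activity with enzyme and -100% = basal without enzyme; dose as in the result columns while the protocol names 77 µM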
Target sequence (P06280 whole entry, looked up): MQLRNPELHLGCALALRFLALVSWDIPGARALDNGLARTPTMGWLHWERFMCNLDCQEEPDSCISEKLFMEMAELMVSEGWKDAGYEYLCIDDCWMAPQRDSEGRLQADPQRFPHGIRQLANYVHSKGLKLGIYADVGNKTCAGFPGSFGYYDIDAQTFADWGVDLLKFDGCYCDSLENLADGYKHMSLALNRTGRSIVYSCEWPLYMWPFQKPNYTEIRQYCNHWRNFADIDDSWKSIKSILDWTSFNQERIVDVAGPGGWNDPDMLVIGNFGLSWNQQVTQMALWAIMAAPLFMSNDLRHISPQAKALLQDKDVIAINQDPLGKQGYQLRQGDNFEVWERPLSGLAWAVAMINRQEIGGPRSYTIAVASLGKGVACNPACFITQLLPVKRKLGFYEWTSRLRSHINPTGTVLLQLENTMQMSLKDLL
Rango complex inh – inhibitors of Rango-importin beta complex formation | AID 540263 | Rango CFP/YFP FRET sensor + importin beta, 45 min | 0.031% of 340,000 active | Potency, µM (series often up to 92.2 µM), for inactives: at the highest dose inhibition of complex formation; active = rising FRET ratio curve, often small or poorly fitted; inconclusive = mostly compound fluorescence or quenching in the first reads; inactive = flat curves in all reads;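 further: potency means the concentration at half of the fitted maximal effect; 0% = DMSO wells and 100% = buffer wells lacking importin beta; nearly all actives have a fitted effect of over 15% in size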
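Inhibition scored from the CFP 486 nm/YFP 530 nm FRET ratio 45 min after adding 0.125 microM importin beta to 50 nM Rango biosensor preincubated 5 min with compound (room temperature, PBS with DTT, Tween-20, BSA). No-importin wells as positive control.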
Rango dissoc inh – inhibitors of RanGTP-induced Rango-importin beta complex dissociation; Potency, µM (titrated, usually from 46.1 µM), without a hit: at the top dose activity change, negative = inhibition; 0.071% of 340,000 active; O95149+P62826; Biochemical FRET Rango-importin beta, RanGTP-induced dissociation; active means falling FRET ratio curve, often poorly fitted, with flat reads before Ran was added; inconclusive means other falling curves, or compound fluorescence or quenching; inactive means flat or rising ratio curve;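 further: potency means the concentration at half of the fitted maximal effect; % of control where 0% means no effect; nearly all actives have a fitted effect of over 45% in size; -100% = wells without RanGTP and RCC1; the record marks most hits as doubtful in a second field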
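Rango/importin beta premix (0.1/0.25 uM final), PBS + 1 mM DTT + 0.02% Tween-20 + 0.1% BSA; cpd 5 min RT; FRET pre-read; + RanGTP-RCC1 (0.6 uM Ran, 2 mM GTP, 0.2 uM RCC1); 45 min RT; FRET post-read, ex 430, em 486/530 nm.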
Active calls of the source: *; u = inconclusive; x = not tested or not shown; & = joins results of further samples; [ ] = dose if it differs, or a comment.

SMILES | miR-21 reporter | GLA inh pH 4.5 | Rango complex inh | Rango dissoc inh
CCc1ccc(NC(=O)C2CC(=O)Nc3ncnn32)cc1 (stereo not given) | 0% | 0 | 1.6% | -7%
Nc1nc(-c2ccc3ccccc3c2)cs1 | -74% | 4 | -3.3% | 8%
O=C(Nc1ccc(S(=O)(=O)Nc2ncccn2)cc1)c1ccc(Br)o1 | -5% | -15 | -4.9% | -8%
O=C(COc1c(Br)cc(Br)c2cccnc12)N1CCCCC1 | -16% | -11 | -1.5% | 7%
C=CCc1c(C)nc(SC)nc1Nc1ccc(C)cc1 | 10% | -6 | 0.4% | 1%
CCCCCCCCc1nc(SCC(C)=O)n[nH]1 | -9% | 7 | 1.6% | -6%
Cc1nn(Cc2ccccc2)c(Cl)c1/C=C/C(=O)OCC(=O)N(C)C1CCS(=O)(=O)C1 (stereo not given) | -4% | -12[21.1 µM] | -2.6% | 1%
O=C(COC(=O)/C=C/c1ccco1)Nc1ncc(Cl)cc1Cl | -4% | 4 | -2.0% | -6%
CCCCCNCc1cccc(Br)c1 | -12% | 1 | 2.1% | 14%
COc1ccc(C2(C)C(C#N)C(=O)NC(=O)C2C#N)cc1 (stereo not given) | x | x | -3.3% | 1%
CCS(=O)(=O)N1CCN(C2Cc3ccccc3C2)CC1 | -31% | 12 | -0.3% | -12%
COc1ccc(C2/C=C\CN(C(=O)CC(C)(C)C)CC(=O)N2Cc2ccc(F)cc2)cc1 (stereo not given) | 2% | 3 | 0.2% | 3%
COc1ccc(Cl)cc1NC(=O)c1cc(-c2ccccc2O)n[nH]1 | -3% | 6 | -0.2% | 9%
CCN(C(=O)COC(=O)/C=C/c1ccc(S(=O)(=O)N2CCc3ccccc32)cc1)C1CCS(=O)(=O)C1 (stereo not given) | -1% | -5 | 4.7% | 0%
Cc1ccc(O)c(C(=O)/C=C/c2ccc3c(c2)OCCO3)c1 | -22% | -3 | 0.6% | 4%
Cc1oc(-c2ccc(Cl)cc2)cc1C(=O)/C(C#N)=C/Nc1cccc(OC(F)(F)F)c1 | -2% | -9 | 0.6% | -18%
CC(C)Cn1c(N)c(C(=O)COC(=O)c2cc(C(F)(F)F)nc3ccccc23)c(=O)n(C)c1=O | 4% | -26&-12 | u | -22%
CC(=O)Nc1ccc(NC(=O)CSc2nc(N)c(NC(=O)c3ccccc3F)c(=O)[nH]2)cc1 | 4% | x | -0.3% | 7%
Cc1ccc(C(=O)Nc2nc3ccc(Cl)cc3s2)o1 | x | x | 3.0% | -1%
COc1ccc(C2CC(c3cccs3)=NN2S(C)(=O)=O)cc1 (stereo not given) | -33% | -8 | -2.9% | 9%
COc1ccc(C)cc1N1CC(C(=O)Nc2ccccc2C(=O)NC2CC2)CC1=O (stereo not given) | x | x | -0.5% | 10%
COCC1CCCN(Cc2nc(C(c3ccccc3)c3ccccc3)no2)C1 (stereo not given) | 6% | -4 | u | -12%
CCNS(=O)(=O)c1ccc(NC(=O)c2cccnc2)cc1 | -7% | 10 | 7.1% | -8%
O=S(=O)(c1cccc(S(=O)(=O)N2CCC(n3nnc4ccccc43)CC2)c1)N1CCCCC1 | 4% | -1 | -2.6% | 31%
CC(=O)NCC(=O)NC(Cc1ccccc1)C(N)=O (stereo not given) | -1% | 2 | 0.2% | 7%
Oc1ccccc1C1=NN(c2ccccc2)C(c2ccc(F)cc2)C1 (stereo not given) | -9% | x | u | 0%
Nc1nc(COC(=O)c2ccc3c(c2)OCCO3)nc(Nc2ccccc2)n1 | x | x | -0.3% | -2%
COc1ccccc1C(=O)Nc1ccc2c(c1)nc(CCNC(C)=O)n2C | -56% | 2 | 6.9% | -5%
CC(=O)c1cn(-c2ccc([N+](=O)[O-])cc2)c(=O)n(C)c1=O | x | x | 3.8% | -4%
CCc1cccc(CN2CCC(CNC(=O)Nc3ccc(Cl)cc3)CC2)c1 | -1% | 6 | 2.5% | -22%
CCOCC(=O)Nc1cccc(Br)c1 | -4% | -3 | 0.9% | -6%
CN1C(=O)CC(N2CCN(CCN=CC3=C(O)CC(C)(C)CC3=O)CC2)C1=O (stereo not given) | -3% | -4 | u | u
COc1ccccc1NC(=O)Nc1cc(C(C)C)ccc1C | 0% | 5 | 7.2% | -17%
COc1cc(OC)cc(C(=O)Nc2ccc(C(=O)Nc3ccccc3OC)cc2)c1 | x | x | 4.8% | 0%
COCCCNC(=O)c1cc(C)nc2ccc(F)cc12 | 3% | -5 | 1.4% | -7%
O=C(N1CCOCC1)N1CCN(S(=O)(=O)c2cccc([N+](=O)[O-])c2)CC1 | 2% | x | -0.1% | -12%
CC1CCC(NC(=O)CN(C)CC(=O)Nc2ccc(F)cc2)CC1 (stereo not given) | x | x | -1.0% | 2%
COc1ccc(C(=O)OC(C)CN2CCN(C)CC2)cc1 (stereo not given) | -15% | x | 6.0% | 10%
CC(=O)OC1c2ccccc2C(=O)N1Cc1ccccc1Cl (stereo not given) | 0% | 4 | -1.2% | 16%
CC(C)c1ccc(NC(=O)CSc2n[nH]c(=O)n2Cc2ccco2)cc1 | 16% | 1 | 2.4% | 20%

Four compounds from above, arranged by molecular weight, rising.
SMILES | miR-21 reporter | GLA inh pH 4.5 | Rango complex inh | Rango dissoc inh
COc1ccccc1NC(=O)Nc1cc(C(C)C)ccc1C | 0% | 5 | 7.2% | -17%
CCNS(=O)(=O)c1ccc(NC(=O)c2cccnc2)cc1 | -7% | 10 | 7.1% | -8%
CC(=O)OC1c2ccccc2C(=O)N1Cc1ccccc1Cl (stereo not given) | 0% | 4 | -1.2% | 16%
COc1cc(OC)cc(C(=O)Nc2ccc(C(=O)Nc3ccccc3OC)cc2)c1 | x | x | 4.8% | 0%

(further entries)
SMILES | miR-21 reporter | GLA inh pH 4.5 | Rango complex inh | Rango dissoc inh
COC(=O)c1cccc(COC(=O)c2cccnc2SC)c1 | -35% | 2 | 0.7% | -11%
CCOC(=O)c1cnc2c(ccc3ccccc32)c1N | -44% | x | 1.0% | 12%
C=CCN(C(=O)C1CSC2(C)CCC(=O)N12)c1nc(-c2ccccc2)cs1 (stereo not given) | x | x | -0.3% | -13%
Cc1c(C)c2ccc(OCC(=O)Nc3ccccc3C(N)=O)cc2oc1=O | -7% | x | 3.1% | -6%
COc1ccc(OC)c(S(=O)(=O)N2CCN(c3c(C)cccc3C)CC2)c1 | 0% | 3 | u | -13%
O=C(OC(C(=O)Nc1ccc([N+](=O)[O-])cc1Br)c1ccccc1)c1ccccc1 (stereo not given) | -13% | 1 | 0.1% | -5%
CCc1ccc(/C=c2\s/c(=C\C(=O)C(C)(C)C)[nH]c2=O)cc1 | 12% | -10 | u | -17%
COC(=O)c1ccc(C)c(NC(=O)Cn2c(C)csc2=O)c1 | x | x | 2.8% | -16%
Cc1ccc(C(=O)Nn2cnnc2)cc1 | -1% | x | 0.7% | 6%
CC(=O)N1CCN(C(=O)c2cccc(S(=O)(=O)NCc3ccccc3)c2)CC1 | x | x | 3.2% | 9%
CC(C)c1nnc(NC(=O)CC(=O)Nc2ccccc2C(=O)O)s1 | 4% | 0 | 0.9% | 8%
C=CCN1C(=O)c2ccc(C(=O)N3CCC(C(N)=O)CC3)cc2C1=O | -1% | x | -0.3% | -11%
CCOC(=O)c1c(C)[nH]c(C(=O)NNC(=O)c2ccccc2)c1C | -25% | 2 | -0.8% | -4%
COc1ccc(N2CCN(C(=S)NCc3ccc(C)cc3)CC2)cc1 | -1% | -4 | 5.7% | 14%
CC(NCc1ccc(F)cc1)C(=O)Nc1cc(S(=O)(=O)N2CCCCC2)ccc1Cl (stereo not given) | -4% | 0 | -2.3% | -1%
Cc1nn(CCC(=O)NCc2ccc(N(C)C)cc2)c(=O)c2nn(-c3ccccc3)c(C)c12 | -1%&-5% | x | 0.6% | 10%
Cc1cccc(OCC2=NS(=O)(=O)c3ccccc3N2)c1 | -40% | 2 | 6.2% | 5%
COc1ccc(CC(=O)Nc2ccccc2NC(=O)Cc2ccc(OC)cc2)cc1 | 10% | x | 3.7% | 9%
CC1(C)CC(=O)C(C=Nc2ccccc2Sc2ccccc2)=C(O)C1 | 0% | 0 | -0.1% | 1%
COc1ccc(OCC(=O)NCCCCCCNC(=O)COc2ccc(OC)cc2)cc1 | -1% | x | 0.2% | 4%
O=C(Nc1ccc2c(c1)OCO2)N1CCN(c2ccccc2Cl)CC1 | -55% | -4 | 3.2% | 1%
COc1ccccc1C(C)NC(=O)Cc1ccc(S(=O)(=O)N2CCOCC2)s1 (stereo not given) | x | x | 1.3% | 14%
COc1ccc(Cl)cc1C(=O)n1cnc2ccccc21 | -6% | x | -2.9% | 9%
Cn1cc(Br)c(C(=O)Nc2sc3c(c2C(N)=O)CCC3)n1 | -48% | 3 | 4.7% | 15%
Cc1ccc(S(=O)(=O)[N-]c2nc3ccccc3nc2-n2cc[n+](Cc3ccccc3)c2)cc1 | 17% | 3 | u | u
O=C(CN1C(=O)c2ccccc2C1=O)NCC(=O)OCC(=O)c1cccc([N+](=O)[O-])c1 | -2% | -5 | -0.2% | -8%
O=C(O)c1cccc(S(=O)(=O)Nc2ccccc2N2CCOCC2)c1 | 0% | 3 | 2.1% | -3%
Cc1cccc(N2CCN(C(=O)c3ccc(CS(=O)(=O)c4ccccc4C)o3)CC2C)c1 (stereo not given) | u | -12 | 1.1% | -1%
CCC(=O)N1CCc2cc(S(=O)(=O)NCCCN3CCN(Cc4ccccc4)CC3)ccc21 | 3% | -1 | -1.9% | -1%
Cn1cccc1Cc1nnc(SCC(=O)NC2CCCCC2)n1-c1ccc(F)cc1 | 4% | 3 | -1.0% | 7%
CC12CCCCC1N(O)C(=O)C(=O)N2O (stereo not given) | 6% | -5 | -2.9% | -4%
CC1CCCN(C(=O)CN2C(=O)c3ccccc3C2=O)C1 (stereo not given) | -1% | 1 | -0.9% | 0%
COc1ccc(NC(=O)CSc2nnc(-c3ccco3)n2N)cc1Cl | -3% | x | 2.3% | 12%
CC1CCC2C(=O)N(c3cccc(C(=O)Nc4ccccc4Cl)c3)C(=O)C2C1 (stereo not given) | -5% | x | 1.5% | 10%
O=C(CCNS(=O)(=O)c1ccccc1Cl)OCc1nnc(-c2ccccc2Cl)o1 | x | x | 0.0% | -6%
O=c1c2ccccc2nc2n1CCCCN2 | -6% | -3 | -1.1% | 2%
Cc1cccc(N2CN(S(=O)(=O)c3cccc([N+](=O)[O-])c3)c3nc4ccccc4nc32)c1 | x | x | 0.7% | -10%
Cc1[nH]c2ccccc2c1/C=N/NS(=O)(=O)c1ccccc1 | 4% | -2 | u | -11%
Cc1cc(NC(=O)CCC(=O)N(c2ccc(F)cc2)C(C(=O)NC2CCCC2)c2ccncc2)no1 (stereo not given) | 1% | 3 | 9.3% | 25%
Cc1nn(-c2ccccc2)c(Cl)c1/C=N/NC(=O)c1ccccc1NS(=O)(=O)c1cccs1 | -17% | 5 | -0.6% | 0%
Cc1c(-c2cccc(NC(=O)c3cccs3)c2)nc2ncccn12 | -3% | u | 0.3% | 3%
CCOc1ccccc1N/C(=N/c1nc(C)cc(C)n1)NC(=O)Nc1ccc(Cl)c(Cl)c1 | -2% | 0 | x | x
CN(C)NC(=O)c1ccc([N+](=O)[O-])s1 | 7% | -5 | -1.9% | 0%
Cc1ccc(NC(=O)C2CCCC2)cc1S(=O)(=O)N1CCOCC1 | x | x | -3.0% | u
CCOC(=O)CSc1nnc(CSc2nc(N)c3c(C)c(C)sc3n2)n1-c1ccccc1 | 0% | -5 | -4.8% | -9%
Cc1ccc(-n2ncc3c(SCC(=O)NNC(=O)C(C)C)ncnc32)cc1 | -16% | x | 0.4% | 3%
O=[N+]([O-])c1cccc(S(=O)(=O)NC2CC3CCC2C3)c1 (stereo not given) | -6% | x | 1.3% | -16%
OC[C@@H](O)[C@@H](O)CO | x | x | 2.0% | -14%
O=[N+]([O-])c1ccc(S(=O)(=O)Nc2ccccn2)cc1 | -11% | x | 0.0% | 3%
CCn1c(O)c(N=Nc2ccc3ccccc3n2)c2ccccc21 | -63% | -14 | u | -13%
COCCNC(=O)c1cc2ncc(Br)cn2n1 | -2% | -5 | -0.6% | 0%

Some of the compounds tested. The share of hits here may be higher or lower than overall.
